Sfp inh: blocks B. subtilis Sfp PPTase activity. Biochemical Sfp PPTase activity, qHTS. Potency, µM, inactives show max response, negative = inhibition, actives largely listed as inhibitors. 310,000 compounds, 3.5% hits; active = well fitted inhibition curve with a large enough effect; inconclusive = small, poorly fitted or top-dose-only effect, or another doubt; inactive = no such curve, though single readings can be large or run the other way;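 note: the enzyme is Sfp with the accession as filed and its product quenches rhodamine fluorescence; potency is the fitted concentration of half-maximal effect; 0% = enzyme reaction without inhibitor and -100% = no enzyme wells; top concentration of the series not given in the record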
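Sfp 15 nM + cpd, 15 min RT; start w/ rhodamine-CoA 5 uM, BHQ-2-YbbR 12.5 uM (final); 50 mM Hepes pH 7.6, 10 mM MgCl2, 0.01% NP-40, 0.01% BSA; read 525/598 nm at 0 and 30 min.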
gsp antagonist: antagonists of gsp mutant (McCune-Albright syndrome); Potency, µM (titrated, usually from 76.9 µM), for inactives: at the top dose activity change, negative = inhibition, usual class: inhibitors; gsp-mutant cells, cAMP HTRF, 30 min; control for the full effect not named in the record; AID 624288; 340,000 compounds, 0.4% hits; active = falling curve of any shape with a large fitted effect; inconclusive = falling curve, mostly with a smaller effect; inactive = flat or rising curve; cell line not stated here;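 note: intracellular cAMP measured with PDE inhibitor Ro 20-1724 present during compound exposure; potency is the fitted concentration of half-maximal effect; % is set by controls: 0 for no effect and ±100 for the full control effect; nearly all actives have a fitted effect of over 65% in size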
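HTRF cAMP measurement after 30 min RT detection following 30 min, 37C compound treatment alongside […] (added as 300 uM solution) in G418-selected cells seeded at 2000/well and grown 16–24 h.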
D2 agonist: activates the human D2 dopamine receptor; P14416; DiscoveRx PathHunter D2 beta-arrestin, luminescence, 90 min; 100% = 57 uM dopamine signal; activation, % (no concentration beside the values); 360,000 compounds, 0.084% hits; AID 624465; in the data active = activation above about 40%; inconclusive = about 15% to 40%; inactive = below about 15%; note: compound concentration not given in the record; the text of the record calls up to 30% inactive
Target sequence (P14416 whole entry, looked up): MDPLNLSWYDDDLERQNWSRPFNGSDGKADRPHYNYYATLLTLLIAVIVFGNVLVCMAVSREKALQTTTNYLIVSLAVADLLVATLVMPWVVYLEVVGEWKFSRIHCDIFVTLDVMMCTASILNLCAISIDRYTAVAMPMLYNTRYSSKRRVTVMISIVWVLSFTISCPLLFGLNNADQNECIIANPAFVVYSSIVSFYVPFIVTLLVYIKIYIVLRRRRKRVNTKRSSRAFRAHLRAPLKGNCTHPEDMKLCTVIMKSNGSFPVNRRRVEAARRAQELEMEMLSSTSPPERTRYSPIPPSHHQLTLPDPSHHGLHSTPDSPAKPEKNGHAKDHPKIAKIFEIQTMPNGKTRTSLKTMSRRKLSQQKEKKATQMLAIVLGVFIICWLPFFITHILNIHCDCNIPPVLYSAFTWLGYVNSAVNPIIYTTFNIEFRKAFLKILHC
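Agonist mode: compounds alone added to overnight-plated D2 PathHunter cells for 90 min at 37 C, with 57 uM final dopamine (EC100) defining full response. Beta-arrestin recruitment detected by chemiluminescent reagent, read after 1 h at ambient temperature.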
ClpP mod: qHTS Assay for Activators of ClpP; ATP-dependent Clp protease proteolytic subunit (Bacillus subtilis (strain 168)), P80244; purified B. subtilis ClpP, FRET peptide cleavage, 20 min; Potency, µM (top dose mostly 57.5 µM), for inactives: at the top dose activity change, negative = active; 340,000 compounds, 1.9% hits; active = well fitted falling curve with a large enough effect; inconclusive = small, poorly fitted or top-dose-only effect; inactive = no such curve, though single readings can be large or run the other way; note: potency is the fitted concentration of half-maximal effect; the source files actives as falling curves though it sought activators and does not explain the sign; nearly all actives have a fitted effect of over 65% in size; many hits overshoot -100%
Target sequence (P80244 whole entry, looked up): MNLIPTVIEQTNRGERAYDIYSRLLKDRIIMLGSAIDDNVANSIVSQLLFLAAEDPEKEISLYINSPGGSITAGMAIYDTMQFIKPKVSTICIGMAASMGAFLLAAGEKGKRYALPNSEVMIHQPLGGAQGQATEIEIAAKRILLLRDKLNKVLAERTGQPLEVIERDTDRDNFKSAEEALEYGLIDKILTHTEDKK
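ClpP 10 microg/mL final, pH 8 Tris/KCl buffer with BSA, glycerol, Tween-20; compound pinned in; FRET-FV substrate; RT 20 min; Ex320/Em430; ΔFRET vs ADEP 5.8 microM, DMSO, no enzyme.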
gsp ag: activates gsp, the McCune-Albright syndrome mutation | gsp mutant cells, cAMP HTRF, 30 min; control for the full effect not named in the record | Potency, µM (series often up to 76.9 µM), without a hit: at the highest dose activation (cAMP increase), most hits filed as activators | 340,000 compounds, 0.13% hits | AID 624287; active = well fitted activation curve with a large enough effect; inconclusive = small, poorly fitted or top-dose-only effect, or another doubt; inactive = no such curve, though single readings can be large or run the other way; cell line not stated here;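 note: phosphodiesterase inhibitor Ro 20-1724 added with compounds to block cAMP breakdown; potency is the fitted concentration of half-maximal effect; nearly all actives have a fitted effect of over 60% in size; about a fifth of the inactives were tested at one dose only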
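Cells stably selected in G418 were plated at 2000/well, grown 16-24 hr, then given compounds in DMSO with the PDE inhibitor […] (300 uM solution added) for 30 min at 37C; cAMP was read by HTRF.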
Menin MLL FP FL: menin-MLL binding inhibition, fluorescein peptide; Fluorescence polarization, fluorescein-MLL peptide displacement from menin; FP activity change, % at 61.4 µM; 290,000 tested, under 10 active; AID 1766; inconclusive = falling polarisation curve, or a change in total fluorescence; inactive = total fluorescence flat and polarisation flat or rising; no compound was filed as active; the % refers to the polarisation; negative = inhibition;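 note: % of control where 0% means no effect; inhibitors lower the polarisation; unlabelled MLL peptide was the positive control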
PINK1 modulator: modulators of PINK1 expression. PINK1 immunofluorescence, high-content cytometry, 24 h. Potency, µM (top dose mostly 76.6 µM), for inactives: at the highest dose activation (PINK1 increase), hits mostly activators. 410,000 compounds, 0.2% hits; active = well fitted activation curve with a large enough effect; inconclusive = small, poorly fitted or top-dose-only effect; inactive = flat fitted curve, though single readings scatter; cell line not stated here;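 note: potency is the fitted concentration of half-maximal effect; % of control where 0% means no effect; nearly all actives have a fitted effect of over 65% in size; a mitochondrial uncoupler was the plate control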
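Stable cell line, 250 cells/well, 12 h attachment; compounds pinned at 5 concentrations, 24 h; CCCP control. Fixed with nuclear dye, primary antibodies 12 h at 10 degrees C, secondary plus cell stain; laser-scanning cytometer read.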
Numbers without * were called inactive; ? = inconclusive; · = no result given; [ ] = remark or other dose.

SMILES	Sfp inh	gsp antagonist	D2 agonist	ClpP mod	gsp ag	Menin MLL FP FL	PINK1 modulator
CCN(CC)S(=O)(=O)c1ccc(O)c(C(=O)OCC(=O)N2CCCC2)c1	16%	25%	-1.3	·	11%[15.4 µM]	2.1	2.8%
O=S(=O)(c1ccc(OC(F)(F)F)cc1)N1CCCC(N2CCOCC2)C1 (stereo unspecified)	3%	9%	3.4	-0.2%	-8%[15.4 µM]	-1.0	-0.1%
CC1CCN(CCCCOc2ccccc2[N+](=O)[O-])CC1	-31%	-5%	0.4	1.2%	-45%[inhibitor]	-1.7	-2.9%[38.3 µM]
Cc1cc(C)nc(SCC(=O)NNC(=O)c2cccs2)n1	6%	-2%	0.6	0.4%	-20%	2.7	0.6%
COC(=O)C1CC2=C(CCCC2=O)NC1=O (stereo unspecified)	·	10%	-1.9	-4.3%	·	·	3.2%
CN(C(=O)COc1ccccc1)c1ccc([N+](=O)[O-])cc1	·	·	-2.4	1.0%	5%	·	1.3%
CN(C)CCCNc1ncnc2sc(-c3ccccc3)cc12	56µM*	11%	-10	4.5%	20%	3.1	2.1%
COc1cc(OC)c(OC)cc1CN1CCCC(C(=O)N2CCCCC2)C1 (stereo unspecified)	?	0%	3.1	-2.6%	1%	4.6	-1.8%
Cc1cccc(Nc2ccncc2S(N)(=O)=O)c1	·	1%	-0.7	·	3%[15.4 µM]	·	0.1%
O=C(O)CCc1ccc(-c2ccc(F)cc2)n1CC1CCCO1 (stereo unspecified)	7%	-6%	0.2	22µM*	24%	0.1	2.3%[38.3 µM]
CCCN=C1N(C)C[C@@H]2[C@@H]3C(=O)N(Cc4ccccc4)C(=O)[C@@H]3[C@](C)(C(=O)OC)N12	·	4%	-1.7	1.0%	·	·	-0.4%
COc1ccc(C(C)NC(=O)C2CCCC2)cc1OC (stereo unspecified)	23%	7%	3.4	·	-15%	2.7	-2.4%
O=C(NCc1cccnc1)c1cc(C2CCCN(C(=O)c3cccs3)C2)on1 (stereo unspecified)	·	·	-4.4	-0.3%	·	·	0.0%
CCC(CC)NC(=O)Nc1ccccc1C(F)(F)F	20%	5%	-5.4	-1.9%	-5%	1.5	0.7%
O=C(O)Cn1ncc2ccccc2c1=O	10%	-14%	1.5	·	-7%[15.4 µM]	-2.8	-0.3%
CCN(CC)S(=O)(=O)c1cccc(C(=O)N/N=C2\CCCC(=O)C2)c1	6%	5%	-7.0	-0.8%	3%	?	1.2%
O=C(N/N=C/c1ccc2c(c1)OCO2)c1cc(-c2ccc(F)cc2)nc2ccccc12	45µM*	6%	0.8	36%	?	1.4	17%
CCCC(=O)Nc1ccc(Cl)c(NC(=O)c2cccc(OC)c2)c1	6%	-5%	-2.6	·	-1%[15.4 µM]	-0.8	-0.4%
Cc1ccc(Cn2ccc(NC(=O)c3cc4nc(-c5ccco5)cc(C(F)(F)F)n4n3)n2)cc1	22%	-2%	-1.0	-16%	-48%	1.3	10%
CCOc1ccc(CC2c3cc(OCC)c(OCC)cc3CCN2C(=O)CN2CCN(C)CC2)cc1OCC (stereo unspecified)	4%	0%	-1.5	·	-3%[15.4 µM]	-1.6	-0.7%

The final 4 records of the section before open the next one:
SMILES	Sfp inh	gsp antagonist	D2 agonist	ClpP mod	gsp ag	Menin MLL FP FL	PINK1 modulator
O=C(N/N=C/c1ccc2c(c1)OCO2)c1cc(-c2ccc(F)cc2)nc2ccccc12	45µM*	6%	0.8	36%	?	1.4	17%
CCCC(=O)Nc1ccc(Cl)c(NC(=O)c2cccc(OC)c2)c1	6%	-5%	-2.6	·	-1%[15.4 µM]	-0.8	-0.4%
Cc1ccc(Cn2ccc(NC(=O)c3cc4nc(-c5ccco5)cc(C(F)(F)F)n4n3)n2)cc1	22%	-2%	-1.0	-16%	-48%	1.3	10%
CCOc1ccc(CC2c3cc(OCC)c(OCC)cc3CCN2C(=O)CN2CCN(C)CC2)cc1OCC (stereo unspecified)	4%	0%	-1.5	·	-3%[15.4 µM]	-1.6	-0.7%
COc1ccc(C(=O)C2CCN(CC(=O)Nc3ccc(OC)cc3OC)CC2)cc1	-8%	-25%	-2.7	-2.9%	4%[15.4 µM]	·	1.2%
CCCCc1cn([C@@H](CCCCNC(=O)OC(C)(C)C)C(=O)N2CCN(C(=O)OC(C)(C)C)CC2)nn1	6%	-7%	-1.0	-1.6%	·	0.2	1.3%
O=C(COC(=O)c1cnc(Cl)c(Cl)c1)NCc1ccco1	-14%	-19%	-3.0	1.0%	0%[15.4 µM]	5.5	0.4%
COC(=O)CCC(=O)Nc1ccc(C)cc1OC(=O)CCC(=O)OC	79µM*	0%	2.7	-4.9%	-20%	2.6	-1.0%
COc1ccc(-c2nc(CN3CCN(C(=O)c4ccco4)CC3)c(C)o2)cc1OC	6%	2%	1.5	-19%	-18%	-0.3	0.8%
CCOc1cc(-c2cc(-c3ccccc3)nc(N)c2C#N)ccc1O	-17%	-14%	-0.6	12%	-20%	4.6	?
COc1ccc(NC(=O)CSc2nnc(-c3ccccn3)n2N)cc1	-2%	-2%	-0.4	2.9%	?	0.2	-1.3%
CC1(c2cccc3ccccc23)OC(=O)c2ccccc21 (stereo unspecified)	·	-10%	3.1	-2.6%	-3%	·	9.1%
COc1ccc(NC(=O)CSc2nc3c(c(=O)[nH]2)CCC3)cc1OC	15%	-5%	-5.0	5.2%	12%	0.6	0.2%
O=[N+]([O-])c1cccc(CN2CCCCCC2)c1	15%	7%	-8.1	·	-22%	0.6	-1.7%
CC([NH2+][O-])C(C)(C)NO (stereo unspecified)	?	10%	1.0	-0.5%	-1%	-0.5	0.5%
CCN1CCN(C2=C(NS(=O)(=O)c3ccc(NC(C)=O)cc3)C(=O)c3ccccc3C2=O)CC1	-1%	1%	11	-0.3%	?	·	-2.3%
Cc1ccc(OCCNC(=O)CCNS(=O)(=O)c2ccc3ccccc3c2)cc1	·	-5%	-1.3	-2.8%	-107%[inhibitor]	·	1.0%
CCCN(C(=O)COC(=O)c1cc(CC)c(C)s1)c1c(N)n(Cc2ccccc2)c(=O)[nH]c1=O	·	-1%	-3.6	-7.4%	-13%	·	5.6%
O=C(NCC1CCCO1)C1CCCN1C(=O)Nc1ccc(Cl)cc1 (stereo unspecified)	-4%	6%	0.9	-0.6%	-23%	4.1	-1.0%
CC(=O)c1cccc(NC(=O)c2ccc(NS(C)(=O)=O)cc2)c1	-3%	-6%	0.9	12%	22%	4.2	-0.9%
CC(C)=CCC/C(C)=C/CNC(=O)C[C@H]1C[C@H](C(=O)N2CCOCC2)[C@@]2(C)c3[nH]c4cc(-c5ccco5)ccc4c3CCN2C1=O	·	-9%	-0.3	5.3%	·	·	?
O=C(Cc1ccccc1)NCC(=O)N1CCN(c2ccccc2)CC1	12%	0%	-6.2	-0.5%	30%[15.4 µM]	·	0.8%
COc1ccc(NC(=O)CN(C)C(=O)c2ccc(NC3CC3)c([N+](=O)[O-])c2)cc1	·	6%	-2.3	·	-20%[15.4 µM]	·	-1.3%
CCOC(=O)c1cn(Cc2ccc(Br)cc2)nn1	26%	9%	-5.8	-0.6%	-3%[15.4 µM]	1.9	-0.3%
Clc1ccc(CSc2ncn(-c3ccccc3)n2)cc1	?	14%	-1.3	-3.0%	9%	2.7	0.3%
COc1ccc(COC(=O)C2=C(C)NC(=O)NC2c2ccccc2)cc1 (stereo unspecified)	9%	-14%	2.4	1.2%	-13%[15.4 µM]	0.8	0.7%
Cc1cc(C)n2nc(SCc3nnc(SCc4ccccc4C)s3)nc2n1	-2%	-9%	5.6	-1.1%	-7%	-0.6	·
CC(=O)Nc1ccc(N2C(=O)CC(Sc3nc4ccccc4s3)C2=O)cc1 (stereo unspecified)	-8%	2%	1.5	1.3%	-63%[inhibitor]	-3.4	1.8%
COc1ccc(-n2cc(CNCc3cnc4ccccn34)c(-c3cccc(F)c3)n2)cc1	?	-38%	-2.9	·	16%[15.4 µM]	?	0.2%
Cc1ccc(NC(=O)/C(=C\c2cccnc2)NC(=O)c2ccco2)cc1	8%	-4%	-1.1	0.0%	-4%	2.0	-0.2%
O=C1NCCOC(=O)[C@@H](Cc2ccc(F)cc2)CC/C=C/C[C@H]1CC(=O)N(CCO)Cc1ccccc1	·	-6%	0.8	-0.2%	·	·	-0.1%
Cc1ccc(S(=O)(=O)N2C[C@]3(O)C[C@@H]4C(=O)N(c5ccccc5)C(=O)[C@@H]4C[C@]3(OC(=O)Nc3cccs3)C2)cc1	·	·	-8.3	0.1%	-66%	·	3.8%
COc1ccccc1CNC(=O)C1CCN(S(C)(=O)=O)CC1	12%	2%	-3.1	-0.2%	0%	-0.6	1.2%
COC(=O)CCCCC1SCC(NC(=O)OC)C1NC(=O)OC (stereo unspecified)	1%	7%	0.1	-1.2%	6%	-1.1	-0.3%
CCC(C)(C(=O)NC1CCCC1)N(C)C(=O)Cc1c[nH]c2ccccc12 (stereo unspecified)	9%	1%	-1.8	·	4%[15.4 µM]	0.7	0.0%
O=C(NCc1ccncc1)NC1CCCCC1	7%	12%	-3.7	1.5%	-26%	0.0	0.6%
O=C(c1cc2ccccc2o1)N(Cc1ccco1)Cc1cccs1	·	?	-1.7	-2.2%	-43%[inhibitor]	·	4.3%
NC(N)=NNC(=O)c1ccccc1Cl	-4%	-2%	-0.3	0.4%	13%	2.7	2.1%
CCc1ccc(-c2nc(CN3CCCC(C(=O)NCCc4ccc(OC)c(OC)c4)C3)c(C)o2)cc1 (stereo unspecified)	-22%	-18%	-2.9	0.2%	-20%	1.8	0.0%
O=C(c1cccc(O)c1)N1CCN(C(=O)C2CC2)CC1	·	-6%	-1.9	-1.6%	14%	·	0.8%
CN(C)c1ccc(C(=O)n2nnc3ccccc32)cc1	1%	0%	0.4	0.0%	5%	2.8	-6.3%[38.3 µM]
N#CC1(NC(=O)COC(=O)CCCN=C2NS(=O)(=O)c3ccccc32)CCCCC1	19%	8%	-7.3	·	21%[15.4 µM]	·	-1.0%
